Bioassay records from PubChem BioAssay.
KCNQ2 block = KCNQ2 potassium channel inhibitors, primary screen, cell-based, CHO-K1, FluxOR thallium flux, B-score (AID 2156); Potassium voltage-gated channel subfamily KQT member 2 (Rattus norvegicus), O88943; 20 min; hits give low values; only compounds with negative scores are shown here; some inactives read as strong as hits; B-score at 10 µM; actives 1.1% (n = 310,000);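 active = fluorescence ratio B-score at most minus 3 library SDs, with starting brightness B-score within 2 library SDs, cut at about -5.5 in these data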
Target sequence (O88943 whole entry, looked up): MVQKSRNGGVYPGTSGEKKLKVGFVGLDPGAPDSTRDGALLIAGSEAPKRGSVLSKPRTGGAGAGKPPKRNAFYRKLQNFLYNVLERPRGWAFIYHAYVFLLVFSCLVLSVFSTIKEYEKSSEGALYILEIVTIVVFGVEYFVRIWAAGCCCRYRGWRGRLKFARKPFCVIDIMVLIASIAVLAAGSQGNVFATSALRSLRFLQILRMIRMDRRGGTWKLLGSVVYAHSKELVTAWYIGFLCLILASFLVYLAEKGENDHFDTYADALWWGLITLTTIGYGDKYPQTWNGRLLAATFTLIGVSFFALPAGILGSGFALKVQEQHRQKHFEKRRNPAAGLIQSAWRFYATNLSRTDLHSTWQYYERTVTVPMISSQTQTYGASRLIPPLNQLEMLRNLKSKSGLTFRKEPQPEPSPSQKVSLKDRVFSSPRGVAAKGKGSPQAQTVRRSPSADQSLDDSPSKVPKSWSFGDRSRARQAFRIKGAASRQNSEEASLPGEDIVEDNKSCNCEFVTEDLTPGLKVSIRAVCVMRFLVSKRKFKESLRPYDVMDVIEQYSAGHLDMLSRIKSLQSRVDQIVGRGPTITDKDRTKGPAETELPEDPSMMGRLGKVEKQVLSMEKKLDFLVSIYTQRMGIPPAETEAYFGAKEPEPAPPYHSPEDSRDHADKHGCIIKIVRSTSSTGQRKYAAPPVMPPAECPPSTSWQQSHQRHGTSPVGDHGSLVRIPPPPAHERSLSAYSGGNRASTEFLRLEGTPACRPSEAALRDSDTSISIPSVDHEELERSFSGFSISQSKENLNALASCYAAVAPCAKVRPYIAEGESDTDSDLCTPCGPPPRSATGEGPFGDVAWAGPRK
KCNQ2 block baseline = further read-out of KCNQ2 block, marked with its call; B-score; measured here: initial fluorescence intensity artifact check;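 brightness before thallium and not channel activity; 0 = typical well and far values either way flag optical interference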
Starred values were filed as active, the others as inactive; i = inactive.

No. | Compound | KCNQ2 block | KCNQ2 block baseline
1 | O=C(COc1ccccc1)NC(=S)Nc1ccc2c3c(cccc13)CC2 | i | 1.6
2 | O=C(Nc1ccccc1C(F)(F)F)Nc1cccc2ccccc12 | i | -2.1
3 | COc1ccccc1/C=C/C(=O)Nc1ccc(S(=O)(=O)Nc2cc(C)on2)cc1 | i | -1.7
4 | COC(=O)C1C/C(=N\NS(=O)(=O)c2ccc(C)cc2)c2sccc2C1 (stereo not given) | i | 2.4
5 | CC(C)NC(=O)CSc1nnc(-c2ccncc2)n1-c1ccccc1 | i | 0.04
6 | CCOCCCN(C(=O)CCC(=O)Nc1cc(C)on1)C(C(=O)NC(C)(C)CC)c1cccc(OC)c1OC (stereo not given) | i | 1.5
7 | O=C(O)c1ccccc1N=Cc1c(O)n(-c2nccs2)c(=O)c2ccccc12 | i | 0.63
8 | Cc1cc(C)cc(CSCC(=O)NN=C2CCCCCC2)c1 | i | 0.08
9 | Cc1ccccc1C(OCC(O)CN1CCCCC1CCO)c1ccccc1 (stereo not given) | i | -0.2
10 | O=C(COc1ccccc1Cl)NNC(=O)c1ccc2nc[nH]c2c1 | i | 0.57
11 | Cc1ccc(CN2CCSc3ccc(C(=O)NCc4ccccn4)cc32)cc1 | i | 0.05
12 | C[C@]12CCC(=O)C=C1CC[C@@H]1[C@@H]2CC[C@@]2(C)[C@H]1CC[C@@]21CCC(=O)O1 | i | 0.08
13 | Cc1ccc(C)c(NC(=O)c2cc(-c3cccnc3)nc3ccccc23)c1 | i | -0.96
14 | Cc1ccc(CNC(=O)C(=O)NCC2OCCCN2S(=O)(=O)c2cccs2)cc1 (stereo not given) | i | 1.2
15 | CC(=O)c1ccc(S(=O)(=O)NC2CC2)cc1 | i | -0.34
16 | CC(=O)Nc1nnc(-c2ccccn2)o1 | i | 1
17 | CCN(CC)S(=O)(=O)c1ccc(N2CCOCC2)c(NC(=O)c2cc(C)cc(C)c2)c1 | -6.2* | 1.1*
18 | c1cncc(-c2noc(-c3ccc4ccccc4c3)n2)c1 | i | -1.3
19 | CCOCCCNC(=O)C1CC(=O)N(C2CCCC2)C1 (stereo not given) | i | -0.63
20 | CC(C)C[C@@H](COc1ccccc1)N1CCN(CC(C)C)CCC1=O | i | 1.2
21 | O=C(Nc1ncc2c(n1)CC(c1ccco1)CC2=O)c1ccccc1 (stereo not given) | i | -2.1
22 | Cc1cc(C)c(C(=O)/C=C/c2cccc3ccccc23)c(=O)[nH]1 | i | -0.89
23 | CCN1CCCC1CNC(=O)C(=O)Nc1ccc(OC)cc1 (stereo not given) | i | -0.84
24 | CN(c1ccccc1C(=O)Nc1cccc([N+](=O)[O-])c1)S(=O)(=O)c1ccccc1 | i | 0.29
25 | Cc1ccccc1C(=O)Nc1ccccc1C(=O)N1CCC(C)CC1 | i | -0.11
26 | Cc1cc(=O)oc2cc(OS(C)(=O)=O)ccc12 | i | 1.6
27 | COc1ccc(C)cc1N(CC(=O)NC1CCCC1)C(=O)Cn1nnc(-c2ccc(C)o2)n1 | i | -1.1
28 | CCC(=O)N1CCN(CCN=CC2=C(O)CC(c3cccs3)CC2=O)CC1 (stereo not given) | i | -0.43
29 | CCCOc1ccccc1C(=O)N1CCNC(=O)C1CC(=O)OC(C)C (stereo not given) | i | -1.3
30 | O=C1CC(NCc2ccncc2)C(=O)N1c1ccc(Cl)cc1 (stereo not given) | i | 0.9
31 | Cc1ccccc1OCc1nnc(SC(C)C(=O)O)n1Cc1ccccc1 (stereo not given) | i | -2
32 | O=C(Nc1ccccn1)c1ccc(Br)c(S(=O)(=O)N2CCCC2)c1 | i | -0.65
33 | CCOC(=O)c1c(NC(=O)C(C)Sc2nnc(C)c(=O)[nH]2)sc2c1CCCC2 (stereo not given) | i | -0.71
34 | Cc1ccc(S(=O)(=O)N(CC(=O)NCCC2=CCCCC2)Cc2ccccc2)cc1 | -11* | 0.98*
35 | O=C1NC(CCc2ccccc2)C(=O)N1CCOc1cccc(Br)c1 (stereo not given) | i | -0.56
36 | O=C(Nc1ccccc1N1CCN(C(=O)c2ccc(Cl)cc2)CC1)c1ccc2c(c1)OCO2 | i | -0.17
37 | O=C1O/C(=C\c2ccccc2)c2ccccc21 | i | 1.3
38 | N#CCC(=O)c1ccccc1Oc1ccc(Cl)cc1 | i | -0.02
39 | Cc1ccc(SCC(=O)c2cc(C)c(OC(=S)N(C)C)c(C)c2)cc1 | -7.4* | -1.7*
40 | COc1ccc(N2CCN(C(=O)NC34CC5CC(CC(C5)C3)C4)CC2)cc1 | i | -2.2
41 | O=C(O)C1CCN(S(=O)(=O)c2cccc3nonc23)CC1 | i | -0.64
42 | Cc1ccc(S(=O)(=O)Nc2nc3ccccc3nc2N2CCc3ccccc3C2)cc1 | i | 1.9
43 | CCCNC(=O)C(NS(=O)(=O)c1ccc2c(c1)c(=O)n(C)c(=O)n2C)c1ccccc1 (stereo not given) | i | -0.65
44 | CS(=O)(=O)c1ccccc1C(=O)NCCC(c1ccccc1)c1ccccc1 | i | -0.03
45 | O=S(=O)(Nc1ccc(Cc2ccncc2)cc1)N1CCCC1 | i | 4.7
46 | COc1ccc(CCNC(=O)c2c(C)nn(CC(C)C)c2Cl)cc1 | i | 1.4
47 | COc1ccc(CNC(=O)[C@H](C)[C@@H]2C[C@@]2(C)[C@@H](NC(=O)OCc2ccccc2)c2ccccc2)cc1OC | i | -1.9
48 | COc1cc2cc(CN(Cc3cccs3)C(=S)Nc3ccc(C)cc3)c(=O)[nH]c2cc1OC | i | -0.18
49 | S=c1[nH]nc(COc2ccccc2)n1/N=C/C=C/c1ccco1 | i | 0.04
50 | COc1ccccc1CCc1nnc(CCC(=O)NCC2CCCO2)o1 (stereo not given) | i | 0.24
51 | CCCN1C(=S)c2ccccc2C1c1ccccc1 (stereo not given) | i | -1.4
52 | COc1ccccc1C(=O)NCCN1CCN(c2ccccc2)CC1 | i | -0.18
53 | O=C(Nc1ccccc1)C1=C[C@H](c2csc3ccccc23)C[C@H](OCCCCO)O1 | i | 1.3
54 | CSCCNCc1cn(-c2ccc(F)cc2F)nc1-c1ccccc1C | i | -0.5
55 | O=C(NCc1ccc(F)cc1)C(c1ccco1)N(C(=O)c1csnn1)C1CC1 (stereo not given) | i | -0.13
56 | N/C(=N\NC(=O)c1ccccc1)c1cc2ccccc2oc1=O | i | -1.1

Remaining list, next part:
No. | Compound | KCNQ2 block | KCNQ2 block baseline
57 | CCO[C@H]1OC(C(=O)N2CCN(Cc3ccc4c(c3)OCO4)CC2)=C[C@@H](c2ccc(Br)cc2)[C@@H]1CCCO | i | 1.3
58 | Cc1ccccc1NC(=O)COc1coc(CN2CCCc3ccccc32)cc1=O | i | 0.07
59 | N=c1cc(C2(O)CCCCC2)n2c(nc3ccccc32)s1 | i | -0.69
60 | COC(=O)c1c(NC(=O)c2nn(C)cc2Cl)sc2c1CCCC2 | i | 0.33
61 | Cc1c(N(C)C(=O)c2ccco2)c(=O)n(-c2ccccc2)n1C | i | 0.94
62 | Cc1cccc(C(=O)NCCNC(=O)c2ccccn2)c1 | i | 0.87
63 | CCCCSc1nc(O)c(C2OC(=O)c3c2ccc(OC)c3OC)c(=O)n1-c1ccccc1 (stereo not given) | i | 0.11
64 | O=C(CN1C(=O)C2C3C=CC(C3)C2C1=O)N1CC=C(c2ccccc2)CC1 (stereo not given) | i | -1

Some of the entries so far, field by field:
58) Cc1ccccc1NC(=O)COc1coc(CN2CCCc3ccccc32)cc1=O
  KCNQ2 block: i
  KCNQ2 block baseline: 0.07

59) N=c1cc(C2(O)CCCCC2)n2c(nc3ccccc32)s1
  KCNQ2 block: i
  KCNQ2 block baseline: -0.69

60) COC(=O)c1c(NC(=O)c2nn(C)cc2Cl)sc2c1CCCC2
  KCNQ2 block: i
  KCNQ2 block baseline: 0.33

Further results.
No. | Compound | KCNQ2 block | KCNQ2 block baseline
65 | Cc1cc(C(=O)C(=O)N(C)C)c(C)n1-c1ccc([N+](=O)[O-])cc1 | i | 1.2
66 | CC1=C(C(=O)N2CCOCC2)C(c2ccc(Br)cc2)NC(=S)N1c1ccccc1 (stereo not given) | i | -0.05
67 | CCCCCCCC1(C)NC(=O)N(CC(=O)Nc2cc(C)on2)C1=O (stereo not given) | i | 0.28
68 | COc1ccc(-c2c(C(F)(F)F)nn(C)c2NC(=O)c2cccnc2)cc1 | i | -2
69 | COc1ccc(C=C(c2ccc(OC)cc2)c2ccc(OC)cc2)cc1 | i | -1.6
70 | N/C(=N\C(=S)Nc1ccccc1)c1ccccc1 | i | 0.05
71 | Nc1nc(CN2CCc3ccccc3C2)nc(Nc2ccccc2)n1 | i | -0.64
72 | Oc1ccccc1C=NC1CCCCC1N=Cc1ccccc1O (stereo not given) | i | 0.63
73 | COC(=O)c1cc(S(=O)(=O)NCC2CCN(CCc3cccs3)CC2)c[nH]1 | i | -0.35
74 | CNc1oc(-c2ccccc2Cl)nc1P(=O)(c1ccccc1)c1ccccc1 | i | -0.01
75 | O=C(Nc1cccc(Cl)c1)N1CCN(C/C=C/c2ccccc2)CC1 | i | -2.6
76 | C=CCn1c(SCC(=O)Nc2ccc(C(=O)O)cc2)nnc1-c1cccnc1 | i | 0.47
77 | COCCNC(=O)c1oc2ccc3c(c2c1C)C(O)CC(C)(C)O3 (stereo not given) | i | 0.07
78 | Cc1nnn(-c2nonc2N)c1C(=O)N/N=C/c1cccc2ccccc12 | i | 2
79 | C=CCn1c2ccccc2c2nnc(SC(CC)C(=O)Nc3sc4c(c3C#N)CCCC4)nc21 (stereo not given) | i | 0.48
80 | COc1ccc(C2=Nn3c(nnc3-c3ccc(OC)cc3)SC2)cc1 | i | 0.5
81 | Cc1nc(-c2ccncc2)sc1C(=O)Nc1ccc(Br)cc1 | i | -0.12
82 | Cc1ccc(C2(C)NC(=O)N(CC(=O)Nc3ccccc3N3CCCCC3)C2=O)cc1 (stereo not given) | i | -0.09
83 | CCc1c(C)nc2nc(SCc3ccccc3Cl)[nH]n2c1=O | i | 0.75
84 | CC1CN(c2nn3c(=O)c4ccccc4nc3c3ccccc23)CC(C)O1 (stereo not given) | i | -1.8
85 | O=S(=O)(/C=C/c1ccccc1)Nc1ccc(N2CCOCC2)cc1 | i | -0.06
86 | Cc1nn(CC(=O)N2CCc3ccccc3C2)c(C)c1Cl | i | -1.6
87 | CCCCCCc1cc2cc(S(=O)(=O)c3ccc(F)c(Cl)c3)c(=O)oc2cc1O | i | 1.1
88 | O=C(CNC(=O)c1ccc(Br)o1)Nc1cccc(S(=O)(=O)N2CCOCC2)c1 | i | -1.5
89 | Cc1ccc2c(c1)NCC(C(=O)NCc1ccccc1)O2 (stereo not given) | i | 0.09
90 | COc1ccccc1N1CC(C)(C)C(=O)N(C(=O)c2c(F)cccc2Cl)C1=S | i | 1.4
91 | O=S(=O)(c1ccccc1)N1CCSC1c1ccco1 (stereo not given) | i | 0.2
92 | CNC(=O)c1ccsc1NC(=O)CS(=O)(=O)c1ccccc1 | i | 1.2
93 | O=C(N/N=C1/CCSC1)c1cccc([N+](=O)[O-])c1 | i | -0.83
94 | O=C(CCC(=O)c1ccc(Oc2ccccc2)cc1)Nc1cccc(Cl)c1 | i | 0.59
95 | O=C1CCc2cc(S(=O)(=O)NC3CCCCC3)cc3c2N1CC3 | i | -0.58
96 | Cc1ccc(OCCC(=O)O)cc1 | i | 2.8
97 | COc1ccccc1CC(NC(C)=O)C(=O)NC1CCN(C(=O)Nc2ccc(F)cc2)CC1 (stereo not given) | i | -0.03
98 | Cc1cc(C(=O)Cn2nnc(-c3ccc(Cl)cc3)n2)c(C)n1-c1ccccc1 | i | 0.69
99 | CC(CCN1CCC(n2nccc2NC(=O)c2ccccc2Cl)CC1)c1ccccc1 (stereo not given) | i | -1
100 | COc1ccc(N2CCN(C(=O)C3Cc4ccccc4CN3C(=O)c3ccccc3)CC2)cc1 (stereo not given) | i | 2.1
101 | Cc1ccc2cc(C#N)c(N3CCN(C(=O)c4cccs4)CC3)nc2c1 | i | 0.64
102 | CN(C(=O)COC(=O)c1ccc2[nH]c3c(c2c1)CCCC3)C1CCS(=O)(=O)C1 (stereo not given) | i | 0.08
103 | CCc1noc(C)c1C(=O)NCCc1ccc(S(N)(=O)=O)cc1 | i | -0.38
104 | COC(=O)c1ccc(CSc2ccccc2C)o1 | i | -1.2
105 | CCCN(CCC)Cc1c(C(=O)N/N=C/c2ccc(Br)cc2)nnn1-c1nonc1N | i | 0.25
106 | CC(=O)Nc1ccc(NC(=O)N(c2ccccc2)c2ccccc2)cc1 | i | 1.2
107 | CCOC(=O)c1[nH]c2ccc(F)cc2c1NC(=O)CN1CCc2cc(OC)c(OC)cc2C1 | i | 0.22
108 | CNc1nc(Oc2ccc(=O)n(C)n2)nc(N2CCOCC2)n1 | i | -1.8
109 | COc1ccc(-c2ccc(CCC(=O)O)n2C(C)C)cc1 | i | -0.13
110 | CC12CCC3C(CCC4N(CCO)CCC34C)C1CCC2O (stereo not given) | i | 0.12
111 | Cc1cc(C)nc(N(C#N)CN2C(=O)c3ccccc3S2(=O)=O)n1 | i | 1.4
112 | CC1CCN(C(=O)Cn2nnnc2CN2CCOCC2)CC1 | i | -0.34
113 | O=C(CCN1C(=O)S/C(=C/c2ccccc2)C1=O)Nc1ccc(O)c(C(=O)O)c1 | i | -0.43
114 | Cc1csc(Nc2ccc(Cl)cc2)n1 | i | 0.69
115 | O=C(Cc1ccc(-c2ccccc2)cc1)Nc1ccccc1 | i | -2.3
116 | O=C(Nc1ccc2ccccc2n1)c1ccccc1 | i | -0.01
117 | O=c1c2c(nc3nc(NCc4ccccc4Cl)[nH]n13)CCC2 | i | 0.46
118 | CN1CCN(CC(=O)c2cc(C(C)(C)C)c(O)c(C(C)(C)C)c2)CC1 | i | 0.41

Filtered by structure, the entries above containing a cyano group.
No. | Compound | KCNQ2 block | KCNQ2 block baseline
38 | N#CCC(=O)c1ccccc1Oc1ccc(Cl)cc1 | i | -0.02
79 | C=CCn1c2ccccc2c2nnc(SC(CC)C(=O)Nc3sc4c(c3C#N)CCCC4)nc21 (stereo not given) | i | 0.48
101 | Cc1ccc2cc(C#N)c(N3CCN(C(=O)c4cccs4)CC3)nc2c1 | i | 0.64
111 | Cc1cc(C)nc(N(C#N)CN2C(=O)c3ccccc3S2(=O)=O)n1 | i | 1.4

Not all compounds are listed. The share of hits here may be higher or lower than overall.
